Screening results from PubChem BioAssay.
NS1 inh = inhibitors of influenza NS1 protein function | Potency, µM (titrated, usually from 46.1 µM), for the others: top-dose activity, positive = more growth | S. cerevisiae slowed by influenza A NS1, growth recovery by OD600 | AID 2326 | hit rate 0.4% among 270,000; active means well fitted rising curve with a large enough effect; inconclusive means small, poorly fitted or top-dose-only effect; inactive means no such curve, though single readings can be large or run the other way; further: nearly all actives have a fitted effect of over 50% in size
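Compounds were scored for reversing the slow growth caused by influenza A NS1 in S. cerevisiae, measured by optical density at 600 nm. Assay medium contained 2% galactose at pH 6.0; NS1-free yeast of the same strain were the positive control.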
Cruzain inh noDet = cruzain (T. cruzi) inhibition without detergent; P25779; purified cruzain, Z-FR-AMC fluorescence, no detergent; Potency, µM, for inactives: max response, negative = inhibition, usual class: inhibitors; hit rate 2.3% among 200,000; AID 1476;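 further: plate controls were enzyme without inhibitor for no effect and buffer without enzyme for full effect; nearly all actives have a fitted effect of over 40% in size; top concentration of the series not given in the record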
Target sequence (P25779 123-467 limits assumed): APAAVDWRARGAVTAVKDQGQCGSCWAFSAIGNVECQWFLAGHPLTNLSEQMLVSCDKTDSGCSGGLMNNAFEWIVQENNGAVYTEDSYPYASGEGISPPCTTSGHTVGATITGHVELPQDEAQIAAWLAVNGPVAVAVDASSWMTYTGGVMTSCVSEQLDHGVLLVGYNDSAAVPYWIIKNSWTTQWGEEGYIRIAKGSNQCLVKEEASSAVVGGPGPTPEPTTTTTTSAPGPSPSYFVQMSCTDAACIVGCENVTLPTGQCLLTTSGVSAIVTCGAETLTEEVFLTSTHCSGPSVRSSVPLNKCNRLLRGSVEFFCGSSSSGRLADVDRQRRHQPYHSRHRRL
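Detergent-free condition (0.00005% Triton X-100) in acetate buffer pH 5.5 with DTT. 1.5 nM enzyme and compound were pre-mixed 15 min, then 2 uM Z-FR-AMC substrate added; reaction progress from fluorescence change between first and third reads (60 s).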
Marburg entry inh = Marburg virus entry inhibition; Marburg virus pseudotyped entry inhibition, cell reporter; control for the full effect not named in the record; about a third of the inactives were read at about 46 µM; hit rate 1.8% among 300,000; AID 540276; Potency, µM (titrated, usually from 37.8 µM), for inactives: top-dose activity change, negative = inhibition, actives largely listed as inhibitors; active = well fitted inhibition curve with a large enough effect; inconclusive = small, poorly fitted or top-dose-only effect, or effect the other way; inactive = flat fitted curve, though single readings scatter; tested in HEK293 cells; about a fifth of its hits are not listed in these tables; further: on the % scale 0 is the no-effect control and ±100 the full control effect; luciferase read-out
Cruzain inh Det = blocks cruzain activity in presence of Triton detergent; P25779; Potency, µM, without a hit: max response, negative = inhibition, actives largely listed as inhibitors; hit rate 0.43% among 200,000; purified cruzain, Z-FR-AMC fluorescence, 0.01% Triton;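 further: plate controls were neutral wells for no effect and buffer without enzyme for full effect; nearly all actives have a fitted effect of over 40% in size; top concentration of the series not given in the record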
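Purified cruzain (1.5 nM final) was preincubated with compounds for 15 min at room temperature in 100 mM sodium acetate pH 5.5, 5 mM DTT, 0.01% Triton X-100. Reaction started with 2 uM Z-FR-AMC; AMC fluorescence change over 60 s gave activity.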
StopGo reporter = lowers the luciferase signal of an FMDV 2A StopGo reporter; human cells with a luciferase reporter of 2A StopGo recoding; control for the full effect not named in the record; Potency, µM (doses to about 57.9 µM), for inactives: at the top dose signal change, negative = less light; hit rate 1.2% among 410,000; active = well fitted falling curve with a large enough effect; inconclusive = small, poorly fitted or top-dose-only effect; inactive = no such curve, though single readings can be large or run the other way; tested in HEK293T cells; further: on the % scale 0 is the no-effect control and ±100 the full control effect; nearly all actives have a fitted effect of over 45% in size; luciferase light after 4 h
LASV entry inh = Lassa virus entry inhibition. Lassa virus pseudotype entry inhibition, cell reporter; control for the full effect not named in the record. Potency, µM (doses to about 37.9 µM), without a hit: at the top dose activity change, negative = inhibition, usual class: inhibitors. hit rate 1.2% among 300,000. AID 540256; active means well fitted inhibition curve with a large enough effect; inconclusive means small, poorly fitted or top-dose-only effect, or effect the other way; inactive means flat fitted curve, though single readings scatter; tested in HEK293 cells; further: on the % scale 0 is the no-effect control and ±100 the full control effect; nearly all actives have a fitted effect of over 50% in size; luciferase read-out
RE007 growth inh = less growth of the S. pombe RE007 Vpr strain; S. pombe RE007 Vpr strain, BacTiter-Glo ATP luminescence, 24 h; control for the full effect not named in the record; Potency, µM (series often up to 92.2 µM), for the others: top-dose activity change, negative = less growth; hit rate 0.21% among 360,000; AID 651644; active = well fitted falling curve with a large enough effect; inconclusive = small, poorly fitted or top-dose-only effect; inactive = no such curve, though single readings can be large or run the other way;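 further: on the % scale 0 is the no-effect control and ±100 the full control effect; nearly all actives have a fitted effect of over 50% in size; the assay follows cell death caused by Vpr and the record does not say whether a fall means rescue or toxicity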
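Fission yeast strain RE007, carrying one chromosomally integrated HIV-1 vpr copy, was seeded at OD 0.01 in PMG+AL medium with 23 nL pinned compound. After 24 h at 30 °C and 99% humidity, viability was read by BacTiter-Glo luminescence.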
SARS PLP yeast = SARS-CoV PLP inhibition in yeast; Potency, µM (highest dose often 32.9 µM), inactives show at the top dose activity, positive = growth rescue; S. cerevisiae expressing SARS-CoV PLpro, growth rescue; control for the full effect not named in the record; hit rate 0.19% among 330,000; active means well fitted rising curve with a large enough effect; inconclusive means small, poorly fitted or top-dose-only effect; inactive means no such curve, though single readings can be large or run the other way; further: 0% is about no effect; nearly all actives have a fitted effect of over 55% in size; growth read by luminescence after 48 h
Numbers without * were called inactive; ? = inconclusive; nt = not tested or not shown; & = joins results of further samples; [ ] = dose if it differs, or a comment. Unless noted, the call rests on the fitted dose curve; in most records, active means well fitted curve in the direction sought with a large enough effect; inconclusive means small, poorly fitted or top-dose-only effect, or another doubt; inactive means no such curve, though single readings can be large; an effect the other way counts as inactive or inconclusive. Potency means the concentration at half of the fitted maximal effect.

SMILES | NS1 inh | Cruzain inh noDet | Marburg entry inh | Cruzain inh Det | StopGo reporter | LASV entry inh | RE007 growth inh | SARS PLP yeast
COc1ccc(-c2csc(N3C(=O)CNC3=S)n2)cc1 | 21% | ? | ? | -2.0% | -48% | ? | -4% | 16%
Cc1cccc(CC(=O)Nc2ccc(C(=O)N3CCOCC3)cc2)c1 | 5% | nt | 11% | nt | 6% | 8% | -4% | 1%
OC(CNC1CCCCC1)COCCOc1ccc(Br)cc1 (stereo not given) | 7% | 0% | ? | 1.8% | ? | -26% | 2% | 0%
COc1ccc(C(C)(C)C)cc1S(=O)(=O)N1CCC(C(N)=O)CC1 | 3% | -1% | 0% | -1.5% | 30% | 1% | 2% | 2%
O=C(Cc1cc(=O)[nH]c(=O)[nH]1)N1CCN(C(=O)c2ccco2)CC1 | -8% | 1% | nt | 6.2% | -1% | nt | 1% | 1.8µM*
CCC(Nc1ccc(OC)cc1)C(=O)N/N=C/c1ccc([N+](=O)[O-])cc1 (stereo not given) | 19% | -10% | 18% | -5.7% | -4% | 9% | -17% | -8%
CC(Oc1ccc(Cl)cc1)c1ccnn1S(C)(=O)=O (stereo not given) | 15% | -8% | 15% | 2.1% | 5% | -7% | 94% | 2%
CCc1ccc2c(c1)C(NC(C)=O)C(=O)N2CC (stereo not given) | -4% | 3% | nt | 6.2% | -12% | nt | -8% | 5%
CCOC(=O)C1=C(C)OC(N)=C(C(=O)OCC)[C@@]12C(=O)N(CC(N)=O)c1ccccc12 | 6% | 7% | -7% | 3.3% | -8% | 20% | -2% | -1%
COc1ccc(Oc2c(C)oc3c(CN(C)C)c(O)ccc3c2=O)cc1 | 5% | 7% | -8% | 4.6% | 2% | 12% | -6% | -5%
O=C(NCc1ccccc1)Nc1cc(Cl)ccc1Cl | 3% | nt | -13%[46.1 µM] | nt | -15% | -14% | -14% | 0%
CCn1c2ccccc2c2cc(NC(=O)C(=O)N3CCOCC3)ccc21 | 0% | nt | ? | nt | 53%[activator] | 6% | -14% | 3%
CCS(=O)(=O)n1nc(-c2ccco2)nc1SC | -3% | 5% | -10% | 5.9% | 0% | 3% | -23% | nt
O=C(NCC1CCCO1)C1c2ccccc2C(=O)N1C1CCCCCCC1 (stereo not given) | -3% | 1% | ? | 5.8% | 2% | -6% | 6% | -1%
C/C(=N\NC(=O)c1cccc(S(=O)(=O)N2CCOCC2)c1)c1cc2ccccc2o1 | 0% | nt | nt | nt | -5% | nt | -1% | 1%
O=C(N/N=C/c1ccco1)c1cc(-c2ccc(Br)s2)[nH]n1 | 2% | nt | 4%[46.1 µM] | nt | 20% | -20%[46.1 µM] | 10% | 0%
O=C(c1ccccc1F)c1cn(Cc2ccc(F)cc2)c2ccccc12 | 3% | -2% | 6% | -8.8% | -11% | 0% | 9% | 7%
Cc1[nH]nc(Nc2ccc(Br)cc2)c1[N+](=O)[O-] | -34% | nt | nt | nt | 19% | nt | -21% | -2%
O=C(N1CCOCC1)C12CC3CC(C1)CC(c1ccccc1)(C3)C2 | 5% | 1% | 0% | 2.4% | ? | 3% | 13%[3.69 µM] | 2%
Cc1ccc2nc(CSc3nc(C)cc(C)c3C#N)[nH]c2c1 | -28% | -23% | ? | ? | 34%[activator] | ? | 1% | -27%
O=C1Nc2ccc(S(=O)(=O)NCc3ccco3)c3cccc1c23 | 8% | nt | -2% | nt | 27% | 11% | 36% | nt
O=C(c1ccc(Cl)cc1)C1CCCN(Cc2ccc3nonc3c2)C1 (stereo not given) | -6% | nt | nt | nt | 4% | nt | -13% | 0%
O=C(N/N=C/c1ccccc1)c1c(O)c2ccccc2[nH]c1=O | -4% | ? | 5% | -2.2% | 1% | ? | ? | -48%
COc1ccc(-n2cc(CNC3CCOCC3)c(-c3cccc(F)c3)n2)cc1 | -1% | nt | 11µM* | nt | -20% | nt | -4% | 0%
Clc1ccc(-c2nnc3sc(-c4ccco4)nn23)c(Cl)c1 | -8% | ? | 0% | -0.4% | nt | nt | nt | 1%
Cc1ccc(NC(=O)CCN2CC(C)OC(C)C2)cc1C (stereo not given) | 12% | nt | nt | nt | -8% | nt | 11% | -5%
Cc1ccc(OCc2nc(-c3ccc(C(=O)N4CCN(c5ccccc5F)CC4)cc3)oc2C)cc1 | nt | 3% | nt | -1.2% | -17% | 22%[46.1 µM] | nt | nt
O=C(O)C1=C[C@@H](c2ccc3c(c2)OCO3)C[C@@H](OCCCCO)O1 | -2% | nt | nt | nt | -12% | nt | 19% | -1%
Cc1nnc(SCC(=O)N2CC(=O)Nc3ccccc32)s1 | nt | nt | 6%[46.1 µM] | nt | 3% | 1% | -22% | 8%
Cc1c2c(c(C)n1C)C(C(=O)NC1CCCCC1)N(Cc1ccccc1)C2=O (stereo not given) | nt | nt | -10%[46.1 µM] | nt | 31%[activator] | nt | -21% | 2%
Cn1cc(Br)c(C(=O)Nc2sc3c(c2C#N)CCC3)n1 | -7% | nt | 7% | nt | 46%[activator] | 11% | -9% | 0%
COc1ccc(C(=O)/C=C/Nc2ccc(S(=O)(=O)Nc3nc(C)cc(C)n3)cc2)c(OC)c1 | 0% | nt | -12%[46.1 µM] | nt | 62%[activator] | 0% | -1% | -1%
O=[N+]([O-])c1cc(-c2nc(-c3ccccc3)no2)ccc1NCc1cccnc1 | nt | 1% | ? | -6.8% | 15% | ? | nt | nt
CCCCn1nc(C(=O)Nc2ccccc2N2CCCC2)c2ccccc2c1=O | nt | nt | -69% | nt | 0% | ? | 14% | 1%
O=C1C2CCCN2C(c2ccncc2)N1c1ccc(Cl)c(Cl)c1 (stereo not given) | -2% | 10% | -14% | -0.2% | -13% | -10% | 0% | -7%
Cc1cccc(C)c1NC(=O)c1nc(SC(C)C)ncc1Cl | nt | -7% | ? | -4.4% | -26% | -3%[46.1 µM] | nt | nt
O=c1cc(CNc2cc(Cl)ccc2Cl)nc2sccn12 | -10% | -2% | ? | -2.1% | 29% | -1% | -12% | -34%
Cc1ccc(N(C(=O)c2ccccc2Cl)C2=NC(C)CS2)c(C)c1 (stereo not given) | -4% | -1% | -23% | -5.8% | -9% | 4% | -3% | -37%
O=C(O)CSc1cccc[n+]1[O-] | 8% | -6% | 2% | 8.1% | 4% | 1% | 16% | nt
COc1ccc(C(C)NC(=S)NCc2ccc(F)cc2)cc1OC (stereo not given) | 26% | nt | 1% | nt | 7% | 17% | 2% | -8%
CN(C)c1oc(-c2ccccc2[N+](=O)[O-])nc1C#N | -3% | nt | nt | nt | -11% | nt | -13% | -2%
CCC1COCCS(=O)(=O)N1Cc1ccc(F)cc1 (stereo not given) | 4% | nt | nt | nt | -4% | nt | 6% | -2%
COc1cccc(N2CCN(C(=O)CN(C)S(=O)(=O)c3ccc4c(c3)CCC(=O)N4)CC2)c1 | -9% | ? | 5% | 1.3% | -12% | nt | 2% | -2%
CCOC(=O)c1cc(Br)c(=O)n2ccccc12 | -18% | 4% | 15% | 9.7% | 0% | 8% | -6% | 1%
C=CCn1c(SCC(=O)N2CCCCCC2)nc2ccccc2c1=O | 15% | nt | -12%[46.1 µM] | nt | -17% | ? | 1% | -1%
CN(C)S(=O)(=O)c1ccc2c(c1)N(CC(=O)Nc1ccc(OC(F)(F)F)cc1)C(=O)CS2 | nt | ? | nt | -7.4% | -2% | -12%[46.1 µM] | nt | nt
O=C(Cc1ccc(-c2ccccc2)cc1)NCCS(=O)(=O)N1CCN(c2ccccc2)CC1 | nt | -4% | nt | 4.6% | 8% | -1%[46.1 µM] | nt | nt
CC(=O)c1cccc(N(CC(=O)N2CCOCC2)S(C)(=O)=O)c1 | 6% | 3% | 24% | 1.1% | nt | 2% | -11% | 5%
O=S(=O)(c1cccs1)N1CCN(c2ccc(F)cc2)CC1 | -4% | nt | ? | nt | 0% | -10% | 9% | -7%
C=CCC(c1ccccc1F)N(CCN1CCOCC1)C(=O)Nc1cccc(Cl)c1 (stereo not given) | 1% | -4% | ? | 1.0% | -5% | -2% | 1%[3.69 µM] | -2%
O=C(NCC1CCN(Cc2cccc(Cl)c2)CC1)c1cc2ccc3cccnc3c2[nH]1 | nt | 1% | nt | -0.2% | -9% | 13%[46.1 µM] | nt | nt
Cc1cc(NC(=O)CSc2nc(CCC3CCCC3)nc3ccccc23)no1 | 2% | ? | 5%&-9% | -2.7% | ? | 10% | 25% | -16%
Fc1ccccc1CNC(=S)NCc1ccc(Cl)cc1 | -17% | nt | nt | nt | 23% | nt | -22% | 1%
Cc1ccc(-c2nc(S(=O)(=O)c3ccccc3)c(N3CCN(c4ccccc4)CC3)o2)cc1 | nt | -9% | 13%[46.1 µM] | -1.0% | 5% | -8%[46.1 µM] | nt | nt
Cc1ccc(/C=C/c2onc(C)c2S(=O)(=O)N2CCC(C(=O)Nc3ccc(C)c(N(C)C)c3)CC2)cc1 | nt | -10% | nt | -3.0% | 0% | 0%[46.1 µM] | nt | nt
CCc1nn(CC(=O)NCCOC)c(=O)c2cc3cc(F)ccc3n12 | nt | -1% | -6%[46.1 µM] | 1.7% | -8% | nt | nt | nt
O=C(NCc1cccnc1)c1ccccc1NS(=O)(=O)c1ccc(F)cc1F | 5% | nt | nt | nt | -13% | nt | -12% | -1%
Cn1nnc2c(N3CCN(c4ccccc4Cl)CC3)ncnc21 | nt | -7% | nt | -0.3% | 2% | 10%[46.1 µM] | nt | nt
O=C(Nc1nc(-c2ccc(Cl)cc2)cs1)c1cccnc1 | 3% | -13% | -15% | 2.4% | -11% | -1% | -7% | -4%
COc1ccc(-c2nn(CCC#N)cc2C(=O)Nc2cccc([N+](=O)[O-])c2)cc1OC | 3% | nt | nt | nt | -19% | nt | -1% | -3%
Nc1nccnc1C(=O)OCC(=O)NNC(=O)c1ccccc1 | 2% | nt | 11%[46.1 µM] | nt | -2% | 24%[46.1 µM] | 1% | 20%
COc1ccc(CC(C)N2CCN(c3ccccc3)CC2)cc1OC (stereo not given) | -1% | -3% | ? | 1.1% | -29% | -29% | -4% | 3%
O=C1OC(c2ccccc2)=C/C1=C\N1CCOCC1 | -5% | ? | -6% | -4.1% | 33%[activator] | ? | 16% | -5%
